Six1-Eya2 blk: Six1/Eya2 interaction inhibition. actives 0.56% (n = 360,000). activity change, % (test concentration not listed). Q15475+O00167. AlphaScreen GST-Six1/His-Eya2 binding, biochemical; stronger effect = lower value; control for the full effect not named in the record; in the data active = activity change below about -65%; inconclusive = about -30% to -65%; inactive = above about -30%; note: % is set by controls: 0 for no effect and ±100 for the full control effect; compound concentration not given in the record
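AlphaScreen with GST-Six1 and His-Eya2 (5X mix: 250 nM and 500 nM), glutathione donor and nickel acceptor beads; buffer 50 mM Tris pH 8.0, 300 mM NaCl, 1 mM TCEP; 1 h at 37 C in the dark.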
PINK1 modulator: changes PINK1 expression | PINK1 immunofluorescence, high-content cytometry, 24 h | Potency, µM (series often up to 76.6 µM), inactives show at the top dose activation (PINK1 increase), most hits filed as activators | actives 0.2% (n = 410,000) | AID 624263; active = well fitted activation curve with a large enough effect; inconclusive = small, poorly fitted or top-dose-only effect; inactive = flat fitted curve, though single readings scatter; cell line not stated here;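 note: potency is the fitted concentration of half-maximal effect; % of control where 0% means no effect; nearly all actives have a fitted effect of over 65% in size; a mitochondrial uncoupler was the plate control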
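Compound titrations (5 concentrations, 24 h) on a stable cell line; DMSO and CCCP controls. Endpoint: fixed-cell PINK1 immunofluorescence with mitochondrial, cell and nuclear markers, scanned by microplate cytometer.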
CtBP-E1A inh: CtBP/E1A binding inhibition. AlphaScreen GST-E1A/His-CtBP binding, 1536-well; stronger effect = lower value; control for the full effect not named in the record. activity change, % (concentration not given with the values). actives 0.49% (n = 340,000). AID 651724; in the data active means activity change below about -65%; inconclusive means about -30% to -65%; inactive means above about -30%; note: % is set by controls: 0 for no effect and ±100 for the full control effect
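In 5 uL wells, 23 nL compound meets equimolar GST-E1A and His-CtBP (5X stock 125 nM each) for 2 h, 37 °C. Beads (5X, 50 ug/mL) then 1 h, 37 °C, dark.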
D2 PAM: human D2 receptor positive allosteric modulation. P14416. DiscoveRx D2 beta-arrestin cells, luminescence, 90 min; 100% = 57 uM dopamine signal. potentiation, % (test concentration not listed). actives 0.23% (n = 360,000). AID 624464; active = potentiation of 50% or more; inconclusive = 30% to 50%; inactive = 30% or less;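 note: compound concentration not given in the record; tested on top of an EC20 dose of dopamine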
Target sequence (P14416 whole entry, looked up): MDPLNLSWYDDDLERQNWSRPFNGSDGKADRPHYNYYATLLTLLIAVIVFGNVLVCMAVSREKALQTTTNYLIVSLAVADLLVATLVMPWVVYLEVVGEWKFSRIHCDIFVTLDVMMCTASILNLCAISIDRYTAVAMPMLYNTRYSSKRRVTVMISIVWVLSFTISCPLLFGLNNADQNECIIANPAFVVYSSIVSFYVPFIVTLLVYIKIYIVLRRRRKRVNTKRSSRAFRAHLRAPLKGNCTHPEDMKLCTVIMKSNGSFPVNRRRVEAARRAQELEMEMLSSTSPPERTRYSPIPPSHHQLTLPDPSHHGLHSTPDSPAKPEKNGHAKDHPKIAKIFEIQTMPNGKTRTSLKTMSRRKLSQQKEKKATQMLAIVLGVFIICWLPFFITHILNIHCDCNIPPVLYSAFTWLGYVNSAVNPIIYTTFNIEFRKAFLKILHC
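D2 cells co-treated with compound plus 50 nM dopamine (EC20) for 90 min at 37 deg C to detect potentiation. Beta-arrestin recruitment was read as enzyme-fragment luminescence after 1 h at ambient temperature. Full response was set by 57 uM dopamine.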
TRPV1 potentiator: enhances activation of the human vanilloid receptor TRPV1; TRPV1-expressing cells, Fluo-8 calcium influx, capsaicin EC20 potentiation; host cell line not named in the record; control for the full effect not named in the record; Q8NER1; actives 0.02% (n = 320,000); AID 540277; potentiation, % at 8.33 µM; active means potentiation above 80%; inconclusive means 30% to 80%; inactive means below 30%; note: 0% is about no effect
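Cells expressing TRPV1 were dye-loaded with Fluo-8 and read kinetically: 10 s baseline, 3 min after compound (agonist portion), then 2 min after EC20 capsaicin (allosteric enhancer portion). Calcium-bound dye fluorescence at 480/520 nm.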
Sfp PPTase inh: inhibitors of Bacillus subtilis Sfp phosphopantetheinyl transferase | Biochemical Sfp PPTase activity, qHTS | AID 1490 | Q9F4F7 | Potency, µM, for inactives: max response, negative = inhibition, usual class: inhibitors | actives 3.5% (n = 310,000); active = well fitted inhibition curve with a large enough effect; inconclusive = small, poorly fitted or top-dose-only effect, or another doubt; inactive = no such curve, though single readings can be large or run the other way;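 note: the enzyme is Sfp with the accession as filed and its product quenches rhodamine fluorescence; potency is the fitted concentration of half-maximal effect; 0% = enzyme reaction without inhibitor and -100% = no enzyme wells; top concentration of the series not given in the record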
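Fluorescence-quenching assay with 15 nM Sfp, 5 uM rhodamine-CoA and 12.5 uM BHQ-2-labelled ybbR peptide in pH 7.6 Hepes/MgCl2 buffer. Enzyme was pre-incubated with compound for 15 min at room temperature. Rate was taken from the 30-min fluorescence change (525/598 nm).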
D2 ag: human D2 receptor agonism in beta-arrestin assay. P14416. DiscoveRx PathHunter D2 beta-arrestin, luminescence, 90 min; 100% = 57 uM dopamine signal. activation, % (concentration not given with the values). actives 0.084% (n = 360,000). AID 624465; in the data active = activation above about 40%; inconclusive = about 15% to 40%; inactive = below about 15%; note: compound concentration not given in the record; the text of the record calls up to 30% inactive
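DiscoveRx PathHunter D2 beta-arrestin cells (2,100/well) attached overnight, then compound-stimulated 90 min at 37 C in HBSS/10 mM HEPES/0.1% Tween-20 buffer; beta-galactosidase complementation read by luminescence after 1 h at ambient temperature. Dopamine 57 uM final (EC100) as control.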
Active calls of the source: *; ? = inconclusive; . = not tested or not shown; & = joins results of further samples; [ ] = another dose, or the depositor's remark.

SMILES	Six1-Eya2 blk	PINK1 modulator	CtBP-E1A inh	D2 PAM	TRPV1 potentiator	Sfp PPTase inh	D2 ag
COc1ccccc1-c1cc(NC(C)=O)c2ncc(-c3ccc(F)cc3)n2c1	-18	5.3%	-4	-5	.	.	2.5
COc1ccc(Cc2cc(-c3ccc(F)cc3)n[nH]c2=O)cc1	-7	0.5%	-25	-4	-4	-9%	-1.9
O=C(Nc1cccnc1Oc1ncnc2cc(Cl)ccc12)c1ccc(F)cc1	-21	0.7%	1	-2	0	?	-1.9
O=C(NC1CC1)[C@@H]1CSC2c3ccccc3C(=O)N21 (some centres undefined)	8	-0.5%	-2	-27	4	19%	5.2
CCCCCOC(=O)Nc1nnc(CCC)s1	3	-1.6%	0	-8	-4	4%	-0.4
COc1ccccc1C(=O)Nc1cccc(S(=O)(=O)N2CCCC2)c1	-17	0.1%	.	-18	-23	7%	-2.3
O=Cc1c(C(=O)O)n(CC(=O)O)c2ccccc12	2	-1.9%	0	69*	-16	10%	13
COCC(=O)Nc1nnc(SCC(=O)N2C(C)CCCC2C)s1 (centres undefined)	1	4.3%	21	-6	-2	0%	-5.3
COc1ccc(/C=C/c2c([N+](=O)[O-])c(=O)n(C)c(=O)n2C)cc1O	-2	2.4%	-15	-7	12	-2%	0.3
Cc1ccccc1C(=O)Nc1nc(SCc2ccc(Cl)cc2)n[nH]1	-5	8.8%	4	-13	-5	8%	-1.4
O=C(CSc1nccn1-c1ccccc1)Nc1ccc2c(c1)OCO2	-15	-1.6%	-15	-24	-8	8%	-2.5
CCN(C(=O)CSc1cc(-c2ccccc2)c2ccc(OC)cc2n1)C1CCS(=O)(=O)C1 (centres undefined)	-20	1.3%	-12	-15	-2	-21%	2.8
CC(C)COC(=O)N(C)C[C@H]1OCc2cn(nn2)CCCC(=O)N([C@H](C)CO)C[C@@H]1C	12	0.8%	3	0	.	.	-9.3
COc1ccccc1N(CC(=O)NCCc1ccccc1)C(=O)CCC(=O)Nc1ccccn1	5	2.1%	-1	-3	3	-6%	-3.0
O=C(/C=C/c1ccc2ccccc2n1)c1cc(Cl)ccc1O	-11	4.3%	-6	-11	?	-14%	5.1
OCCNC(=S)Nc1ccc(Cl)c(Cl)c1	-2	12%	-24	0	-1	-8%	3.4
c1ccc2c(N3CCCC3)nc(-c3ccncc3)nc2c1	?	-0.4%	-28	-11	-23	4%	-4.7
Cc1cc(Cl)ccc1OC(C)C(=O)N1CCCN(C(=O)C(C)Oc2ccc(Cl)cc2C)CC1 (centres undefined)	-8	1.7%	-9	-5	-6	3%	0.3
COC(=O)/C=C/c1ccsc1NC(C)=O	-3	1.0%	5	-2	-4	50µM*	3.1
COc1ccc(/C=C2\SC(=O)N(CC(=O)NN3CCN(C)CC3)C2=O)cc1OC	32	1.2%	-27	12	0	-13%	-1.4
CCC(C)NC(=O)CO/N=C/c1ccc(C(=O)OC)cc1 (centres undefined)	0	1.8%	4	-9	10	3%	-2.0
COCCn1c(C)cc(C(=O)CSc2nc3nc(C)cc(C)n3n2)c1C	1	0.4%	-6	-17	1	-5%	1.4
CN(C)c1ccc(-c2nc3ccccn3c2/N=C/c2ccc(Br)cc2)cc1	-9	16%	-21	?	-18	-30%	8.1
CC1CCC(NC(=O)Cn2ncc3ccccc32)CC1 (centres undefined)	2	4.3%	3	-4	13	17%	-1.8
CC(OC(=O)c1cccc(-n2cnnn2)c1)C(=O)Nc1cccc(Cl)c1 (centres undefined)	-3	-5.5%	7	-8	12	.	-0.4
Cc1ccc(NC(=O)CCn2cnc3ccccc3c2=O)c(C)c1	19	-1.0%	0	-2	15	3%	-4.3
COCc1c(C(=O)OCC(=O)Nc2ccc(OC(F)F)cc2)oc2ccccc12	3	-0.8%	2	-1	-8	.	-6.4
COc1ccc(/C=C2\NC(=S)N(CC3CCCO3)C2=O)c(OC)c1 (centres undefined)	-1	3.4%[38.3 µM]	2	2	4	-6%	-2.0
COc1cccc(C(C)(O)c2nc(-c3cccs3)cs2)c1 (centres undefined)	-3	8.7%	1	2	.	.	-2.9
CCOC(=O)c1c(NC(=O)CSc2nnc(N)s2)sc(C)c1-c1ccc(C)cc1	-13	0.8%	-1	-1	0	0%	-0.5
CCOC(=O)Nc1ccc(OC)c([N+](=O)[O-])c1	3	1.0%	8	-4	-1	3%	0.9
CC(C)(C)NC(=O)CN1CCC(NC(=O)C23CC4CC(CC(C4)C2)C3)CC1	3	0.1%	-1	-9	-6	-12%	-1.1
CCCOc1cccc(-c2nnc(N)s2)c1	-1	1.8%	-6	-1	5	-9%	-3.4
O=c1cc(N2CCOCC2)[nH]c(=O)n1Cc1ccc(F)cc1	1	1.8%	6	-1	-4	-9%	-6.1
Cc1cccc(CN2CCN(Cc3ccc(-n4cccn4)cc3)CC2CCO)n1 (centres undefined)	-1	-0.4%	.	-14	3	7%	-12
CSc1c(CC(=O)Nc2ccccc2C(F)(F)F)n(Cc2ccccc2)c2ccccc12	1	14%	1	-21	20	3%	-3.8
CCC(=O)c1c[nH]c(C(=O)N2CCN(c3ccccc3)CC2)c1	3	-1.6%	2	-2	1	8%	-1.1
CCCCCCCNC(=O)c1ccc(N2CCC3(CC2)OCCO3)c([N+](=O)[O-])c1	-19	2.3%	-6	-19	-19	5%	-0.6
c1ccc2sc(-c3ccncc3)nc2c1	-5	-2.9%	5	-14	.	14%	-0.7
COc1ccc(S(=O)(=O)N2CCN(C(=S)NCC3CCCO3)CC2)cc1OC (centres undefined)	3	2.3%	6	-4	6	8%	1.5
CCOC(=O)CN1C(=O)NC(C)(c2ccc(OC(F)F)cc2)C1=O (centres undefined)	5	0.5%	2	4	-5	6%	-0.1
Nc1nnnn1/N=C/c1cccc(Oc2ccccc2)c1	3	1.4%	0	1	22	17%	-4.8
COC(=O)c1ccc(OS(=O)(=O)N(C)C)cc1	-1	0.6%	.	2	13	5%	-6.4
C/C(CC(=O)Nc1cccc2c1CCCC2)=N\NC(=O)c1ccccc1N	-2	20%[38.3 µM]	-3	14	0	-2%	-0.4
COc1ccc(C2=CC(=O)OC(C)(c3ccccc3)O2)cc1 (centres undefined)	-4	4.7%	1	-9	0	-14%	-0.3
Cc1cc(O)ccc1N/C=C/c1onc(C)c1[N+](=O)[O-]	1	3.8%	0	6	-1	0%	1.7
Cn1cccc1C(=O)Nc1ccc(N2CCOCC2)cc1	-10	0.1%	-10	0	.	.	5.4
CC(C)(Oc1ccc(Cl)cc1)C(=O)OCC(=O)NCCc1ccccc1	11	-0.7%	15	4	-16	5%	-2.9
CN(C)c1cccc(C(=O)Nc2ccc3nc4n(c(=O)c3c2)CCCCC4)c1	-16	3.5%	-5	-3	-10	7%	-9.1
O=C(Cc1ccccc1)Nc1ccc(C(=O)O)cc1	2	-1.9%[38.3 µM]	-2	-1	-1	-9%	1.0
Following part:
SMILES	Six1-Eya2 blk	PINK1 modulator	CtBP-E1A inh	D2 PAM	TRPV1 potentiator	Sfp PPTase inh	D2 ag
CCOC(=O)N1CCN(C(=O)c2ccc(N(Cc3ccc(C)cc3)S(C)(=O)=O)cc2)CC1	1	0.1%[38.3 µM]	7	-2	4	25%	-0.7
CN(C)CCCNc1cc(C(C)(C)C)nc2c(-c3ccc(Cl)cc3)cnn12	8	-0.3%	3	-2	-13	32µM*	3.9
CC(=O)c1cccc(Nc2cc(C)nc3c(C)cc(C)cc23)c1	-3	-2.6%	2	-21	1	15%	-1.1
O=C(NC(N1CCOCC1)C(Cl)(Cl)Cl)c1ccc(Br)cc1 (centres undefined)	10	0.5%	-6	-4	-14	13%	-3.3
COc1ccc(CC(=O)O/N=C(\N)Cc2cccc3ccccc23)cc1OC	2	6.8%	-4	17	0	0%	6.6
Cc1ccc(N(Cc2cc3ccccc3[nH]c2=O)S(=O)(=O)c2ccccc2)cc1	-18	-0.6%	-2	-4	-5	7%	1.3
CN(C(=O)CN(CCO)CC(=O)N(C)C(C)(C)Cc1ccccc1)C(C)(C)Cc1ccccc1	-6	0.6%	-9	-4	-14	7%&30%	-9.3
CSc1nc(N2CCOCC2)c2c3c(sc2n1)CCCC3	-11	0.0%	4	-9	-5	-21%	-2.1
CCN(C(=O)C1CCN(S(=O)(=O)c2cccc3nonc23)CC1)c1ccccc1	-3	0.5%	0	-5	-2	14%	-8.7
COC(=O)c1ccc(CN2CCc3ccccc32)cc1	-29	3.3%	-19	7	?	4%	4.7
Cc1ccc(OS(=O)(=O)c2ccc(-c3csc(C)n3)s2)c(C)c1	22	-0.1%	17	4	-2	?	1.3
C=CCN1C(=O)NC(c2ccccc2)(C(F)(F)F)S/C1=C(\C#N)c1nnc(N2CCOCC2)n1-c1ccccc1 (centres undefined)	-7	0.0%	-16	-5	-2	-6%	-3.9
C[C@H](NC(=O)c1[nH]cnc1C(=O)Nc1cccc(Cl)c1)c1ccccc1	-8	7.0%	.	-4	-3	.	-2.8
COCCNCc1ccc(C(C)C)cc1	0	0.2%	.	-9	-6	-7%	-3.0
C[C@H](CO)N1C[C@H](C)[C@@H](CN(C)S(=O)(=O)c2ccccc2)OCc2cn(nn2)CCCC1=O	-3	3.1%	-20	.	.	.	0.5
O=S(=O)(NCc1ccccc1Br)c1cccs1	-1	5.3%[38.3 µM]	5	-9	2	-1%	-1.1
O=C1NC(=O)/C(=C/c2ccc(N3CCOCC3)o2)N1	-5	2.5%	-12	0	-17	32µM*	-11

Bioassay records (PubChem)
